2A firefly: FMDV 2A StopGo reporter, firefly signal | HEK cells with a luciferase reporter of 2A StopGo recoding | Potency, µM (series often up to 57.5 µM), without a hit: top-dose signal change, negative = less light | hit rate 0.23% among 120,000 | AID 1745856; active = well fitted falling curve with a large enough effect; inconclusive = small, poorly fitted or top-dose-only effect; inactive = no such curve, though single readings can be large or run the other way; note: nearly all actives have a fitted effect of over 60% in size; overnight with compound
StopGo RLuc: FMDV 2A StopGo reporter, Renilla signal; HEK cells with a luciferase reporter of 2A StopGo recoding; Potency, µM (highest dose often 57.5 µM), inactives show at the highest dose signal change, negative = less light; AID 1745857; hit rate 0.32% among 120,000; active means well fitted falling curve with a large enough effect; inconclusive means small, poorly fitted or top-dose-only effect; inactive means no such curve, though single readings can be large or run the other way; note: nearly all actives have a fitted effect of over 55% in size; overnight with compound
An asterisk follows results filed as active; ? = inconclusive; [ ] = remark or other dose. % is set by controls: 0 for no effect and ±100 for the full control effect; potency is the fitted concentration of half-maximal effect.

1	COc1ccc(Cn2c(=O)c3oc4ccccc4c3n(CC(=O)Nc3cc(C)cc(C)c3)c2=O)cc1
2	C/C(=N\O)c1cn(C)c2ccccc12
3	Cc1ccc(Sc2ccc(C#N)cc2C)cc1C
4	O=C(NCCCN1CCCC1=O)c1cc(=O)[nH]c2ccccc12
5	COc1ccccc1CN1C(=O)C(=O)c2cccc(C)c21
6	CC(C)(C)c1ccc(C2CCCN2CC(=O)N2CCCCC2)cc1 (stereo not given)
7	COc1cccc(N2C(=O)N(CC(=O)NCc3cccc(OC)c3OC)c3ccccc3S2(=O)=O)c1
8	Cc1ccc(OCC(=O)Nc2cccc(-c3nc4ccccc4o3)c2C)cc1C
assay / compound | 1 | 2 | 3 | 4 | 5 | 6 | 7 | 8
StopGo RLuc | 1% | 7% | -9%[1.06 µM] | -5% | 0% | 0% | -3% | -23%
2A firefly | ? | 11% | 22% | 9% | -11% | -1% | -10% | -29%

9	COc1ccccc1N(CC(=O)N1CCC(C)CC1)S(=O)(=O)c1ccc(C)cc1
10	Cc1ccc2nc(NC(=O)CSc3ncc(C(=O)Nc4ccccc4)c(=O)n3C)sc2c1
11	O=C(CSc1n[nH]c(-c2ccccc2F)n1)Nc1ccc(N2CCCCCC2)cc1
12	CCCCN1C=C(OC(=O)c2ccccc2OC)c2ccccc2S1(=O)=O
13	Cc1ncc(CN)c(C)c1N
14	CCOc1ccc(S(=O)(=O)NCC(c2ccco2)S(=O)(=O)c2ccc(C)cc2)cc1 (stereo not given)
15	NC(=O)Cn1c(=O)n(CCCCCC(=O)NCc2ccc(F)cc2)c(=O)c2sccc21
16	O=C(NCC(c1cccs1)N1CCOCC1)c1cc(=O)c2ccccc2o1 (stereo not given)
assay / compound | 9 | 10 | 11 | 12 | 13 | 14 | 15 | 16
StopGo RLuc | 101%[activator] | -10% | 22% | ? | -2% | 212%[activator] | -11% | 35%[activator]
2A firefly | 10% | -8% | 82%[activator] | 11% | 15% | -8% | -6% | 8%

Four compounds from above, sorted by SMILES length, low to high.
13	Cc1ncc(CN)c(C)c1N
12	CCCCN1C=C(OC(=O)c2ccccc2OC)c2ccccc2S1(=O)=O
9	COc1ccccc1N(CC(=O)N1CCC(C)CC1)S(=O)(=O)c1ccc(C)cc1
14	CCOc1ccc(S(=O)(=O)NCC(c2ccco2)S(=O)(=O)c2ccc(C)cc2)cc1 (stereo not given)
assay / compound | 13 | 12 | 9 | 14
StopGo RLuc | -2% | ? | 101%[activator] | 212%[activator]
2A firefly | 15% | 11% | 10% | -8%

(further entries)
17	COc1cc(Cl)c(C)cc1NC(=O)CC1Oc2ccccc2NC1=O (stereo not given)
18	CC1(C)CC(=O)C2=C(C1)NC(=O)CC2c1cccc(OCc2ccccc2)c1 (stereo not given)
19	Cc1ccc(CNC(=O)[C@H](Cc2ccccc2)NC(=O)c2cccs2)n1C
20	CCn1c(C(=O)NCCc2ccco2)cc2cc(S(=O)(=O)N(C)C)ccc21
21	CCCCCn1c(CNC(=O)c2ccccc2)nc2ccccc21
22	O=C(CCNS(=O)(=O)c1cccc2nsnc12)NCc1ccccc1
23	CCCSCCCNC(=O)CN1C(=O)CCn2nc(-c3cn(C)c4ccccc34)cc21
24	Cc1cc(=O)c(C(=O)N2CCN(S(=O)(=O)c3ccc(F)c(F)c3)CC2)nn1-c1ccccc1F
assay / compound | 17 | 18 | 19 | 20 | 21 | 22 | 23 | 24
StopGo RLuc | 8% | ? | 11% | 14% | 0% | 10% | -20% | -11%
2A firefly | -3% | ? | 12% | 0% | 19% | -6% | -22% | -13%

25	Cn1c(Sc2ncnc3scc(-c4ccccc4)c23)nnc1C(F)(F)F
26	COc1ccc2nc(N(Cc3cccnc3)C(C)=O)sc2c1
27	O=C(Nc1ccc(-c2nc3ccccc3o2)c(O)c1)c1ccccc1I
28	Cc1cc2c(cc1S(=O)(=O)N1CCC(C(=O)N3CCc4ccccc43)CC1)OC(C)C(=O)N2 (stereo not given)
29	Cc1cc2nn(-c3ccc(F)cc3)nc2cc1NC(=O)c1cc(Cl)ccc1Cl
30	COc1ccc(NC(=O)CCS(=O)(=O)c2ccc3c(c2)OCCO3)cc1Cl
31	CCOc1cccc(C=Nc2cccc3ccccc23)c1
32	Cc1ccccc1CNC(=O)Cc1ccc(NC(=O)N2CCCCc3ccccc32)cc1
assay / compound | 25 | 26 | 27 | 28 | 29 | 30 | 31 | 32
StopGo RLuc | -20% | 18% | 22% | -1% | -10% | 5% | 7% | 25%
2A firefly | -6% | 15% | 56%[activator] | -7% | 68%[activator] | 14% | 24% | -13%

33	O=C(COc1ccc(Cl)cc1Cl)OCC(=O)c1ccc(-c2ccccc2)cc1
34	O=C(O)Cn1nc(N2CCN(c3ccccc3)CC2)ccc1=O
35	CCOC(=O)C(C)Oc1ccc2c(CC)cc(=O)oc2c1C (stereo not given)
36	CC(C)c1nn2c(=O)cc(COC(=O)c3cccc(NC(=O)c4cccs4)c3)nc2s1
37	Cc1ccc(NC(=O)Cn2c(-c3ccc4c(c3)OCO4)cn(-c3ccccc3)c2=O)cc1C
38	O=C(Nc1ccc(Cl)c(Cl)c1)c1n[nH]c(=O)c2ccccc12
39	COc1cc(OC)c(Nc2nc3ccccc3nc2NS(=O)(=O)c2ccc(C)cc2)cc1Cl
40	CCOc1ccccc1Nc1nc(-c2cccc(Cl)c2)c2c(n1)-c1ccccc1OC2
assay / compound | 33 | 34 | 35 | 36 | 37 | 38 | 39 | 40
StopGo RLuc | 15% | -5% | 0% | 18% | 30%[activator] | -10% | 9% | -21%
2A firefly | 0% | -13% | 7% | 23% | 78%[activator] | 58%[activator] | 5% | -15%

41	CCOCCn1c(N2CCCN(C)CC2)nc2ccccc21
42	CC(=O)c1cn(CC(=O)N(C)Cc2ccccc2)c2ccccc12
43	Cc1[nH]c2ccccc2c1C(=O)C(C#N)C(=O)C1CC1 (stereo not given)
44	Cc1ccc(Cn2cc(S(=O)(=O)c3ccc(Cl)cc3)c(=O)c3cc4c(cc32)OCO4)cc1
45	C1=C(c2cccs2)CC(c2cccs2)=NN=C1c1cccs1
46	COc1ccc(-c2ccc(=O)n(CC(=O)NCc3cccnc3)n2)c(F)c1
47	Oc1ccc(Cc2ccccc2)cc1
48	CCCc1cc(=O)oc2cc(OC(C)C(=O)NCc3cccnc3)ccc12 (stereo not given)
assay / compound | 41 | 42 | 43 | 44 | 45 | 46 | 47 | 48
StopGo RLuc | -7% | -19% | -5% | 10% | -5% | 7% | 1% | -2%
2A firefly | -6% | 16% | -9% | 4% | 4% | 39% | 20% | -1%

49	Cc1ccc(NC(=O)/C=N/OCC(=O)Nc2c(C(C)C)cccc2C(C)C)cc1
50	O=C(NC(C1CC1)C1CC1)c1n[nH]c(=O)c2ccccc12
51	O=C(OCC(=O)N1CCCCC1)c1ccc(F)cc1
52	COc1cccc(CNC(=O)C2CCN(S(=O)(=O)c3cn(C)cn3)CC2)c1
53	Cc1ccccc1Cn1c(CN2CCCC(C)C2)nc2c1c(=O)n(C)c(=O)n2C (stereo not given)
54	Cc1cc(C)c(NC(=S)NCC(C)N2CCCCC2C)c(Cl)c1 (stereo not given)
55	O=C(CCCc1nc2ccccc2s1)Nc1cccc(C(F)(F)F)c1
56	CCNc1c(NC(=O)c2ccc3c(c2)OCO3)c(=O)oc2ccccc12
assay / compound | 49 | 50 | 51 | 52 | 53 | 54 | 55 | 56
StopGo RLuc | -16% | -2% | 3% | -5% | -3% | -2% | 16% | 24%
2A firefly | 3% | 9% | 179%[activator] | -15% | -5% | -10% | -4% | 26%

57	CCOc1ccc(OCC)c(NC(=O)C2CCN(S(=O)(=O)c3ccc4c(c3)CC(C)N4C(C)=O)CC2)c1 (stereo not given)
58	CN1CCN(C(=O)CN(Cc2ccc(Cl)cc2Cl)S(=O)(=O)c2ccccc2)CC1
59	Cc1ccc(NC(=O)CSc2nc3ccc(NC(=O)CCc4ccccc4)cc3s2)c(C)c1
60	COc1ccc(CN2CCCN(CC(=O)Nc3cc(C)ccc3C)S2(=O)=O)cc1
61	COc1ccccc1-c1c(C)oc2cc(O)ccc2c1=O
62	Cc1nc2ccc(Cl)c([N+](=O)[O-])c2nc1C
63	O=C(COc1ccc(Cl)cc1Cl)Nc1ccc2oc(=O)ccc2c1
64	CCC(C)OC(=O)c1ccc(-c2ccc(-c3ccc(C(=O)OC(C)CC)cc3)cc2)cc1 (stereo not given)
assay / compound | 57 | 58 | 59 | 60 | 61 | 62 | 63 | 64
StopGo RLuc | -5% | -5% | -6% | 7% | -2% | 15% | -13% | -3%
2A firefly | -22% | -12% | -8% | -6% | 33%[activator] | 0% | -11% | 12%

65	O=C(Cc1ccc(F)cc1)N1CCC(c2nc3c(nnn3Cc3ccccc3F)c(=O)[nH]2)CC1
66	COc1ccc(-c2nc3sc(CCNC(=O)Cc4ccccc4)c(C)n3n2)cc1
67	c1ccc(-c2nc(CSc3nnnn3C3CCCC3)co2)cc1
68	CCC(CC)c1nnc(NC(=O)c2nn(C)c(=O)c3ccccc23)s1
69	O=C(NCc1ccc2c(c1)OCO2)c1cc(=O)c2ccccc2o1
70	COC(=O)NCC(c1cccnc1)N1CCN(c2ccc(F)cc2)CC1 (stereo not given)
71	COc1ccc(C2c3c(oc4ccccc4c3=O)C(=O)N2Cc2ccc3c(c2)OCO3)cc1 (stereo not given)
72	COc1ccc(N2CC(NC(=O)C(=O)c3c(C)[nH]c4ccccc34)CC2=O)cc1 (stereo not given)
assay / compound | 65 | 66 | 67 | 68 | 69 | 70 | 71 | 72
StopGo RLuc | -6% | 10% | 7% | 17% | 12% | -13% | -4% | -3%
2A firefly | -1% | 61%[activator] | 33%[activator] | -3% | 3% | -20% | 18% | -8%

Reformatted: entries from further up.
(69) O=C(NCc1ccc2c(c1)OCO2)c1cc(=O)c2ccccc2o1
  StopGo RLuc = 12%
  2A firefly = 3%
(70) COC(=O)NCC(c1cccnc1)N1CCN(c2ccc(F)cc2)CC1 (stereo not given)
  StopGo RLuc = -13%
  2A firefly = -20%
(71) COc1ccc(C2c3c(oc4ccccc4c3=O)C(=O)N2Cc2ccc3c(c2)OCO3)cc1 (stereo not given)
  StopGo RLuc = -4%
  2A firefly = 18%
(72) COc1ccc(N2CC(NC(=O)C(=O)c3c(C)[nH]c4ccccc34)CC2=O)cc1 (stereo not given)
  StopGo RLuc = -3%
  2A firefly = -8%

(next part)
73	CC(O)CNS(=O)(=O)c1ccc(Oc2ccc(S(=O)(=O)NCC(C)O)cc2)cc1 (stereo not given)
74	O=C(CSc1nc2ccccc2o1)Nc1ccccc1Oc1ccccc1
75	O=C(OCC1C(COC(=O)c2ccncc2)C1(Cl)Cl)c1ccncc1 (stereo not given)
76	Cc1cnc2c(S(=O)(=O)N3CCN(CC(C)C)CC3)cccc2c1
77	COc1ccc(OC)c(NC(=O)Cc2c(C)c3ccc(OC)cc3oc2=O)c1
78	CC(=O)c1cc(-c2ccc(F)cc2)n(CC(=O)NC2CCCCCC2)c1C
79	Cc1ccc(Nc2cc(Cl)c3nonc3c2[N+](=O)[O-])cc1
80	Cc1cc(C)n(C(C)CC(=O)Nc2cccc(C#N)c2)n1 (stereo not given)
assay / compound | 73 | 74 | 75 | 76 | 77 | 78 | 79 | 80
StopGo RLuc | -16% | -9% | -1% | 34%[activator] | 50%[activator] | -15% | ? | -7%
2A firefly | -9% | 10% | 9% | -5% | 11% | -15% | ? | -17%

81	CN(Cc1ccc(C(=O)NC2CC2)cc1)c1nc2ccccc2o1
82	O=C(O)CCc1ccc(OC(F)F)cc1
83	CCOc1ccc(Nc2nc3c(S(=O)(=O)c4cccc(Cl)c4)nnn3c3ccsc23)cc1
84	CCCn1nc(C(=O)N(C)Cc2ccc(OCC)cc2)c2ccccc2c1=O
85	COc1ccc(NC(=O)N2CCN(Cc3ccccc3C)CC2)cc1OC
86	COc1ccc(-c2c(NC(=O)C(C)C)oc3c(C)cccc3c2=O)cc1
87	COc1cc(C2CC(=O)Oc3c2c(=O)n(C)c2ccccc32)ccc1O (stereo not given)
88	CSc1cccc(NC(=O)C2C(C=C(C)C)C2(C)C)c1 (stereo not given)
assay / compound | 81 | 82 | 83 | 84 | 85 | 86 | 87 | 88
StopGo RLuc | -7% | 6% | 77%[activator] | -20% | -8% | -2% | -11% | 29%
2A firefly | 20% | 7% | -3% | -27% | 8% | 13% | -16% | 6%

89	CCOC(=O)COc1nc(-c2ccco2)c2c(c1C#N)CCC2
90	Cn1c(=O)c2c(ncn2CC(O)COCc2ccccc2)n(C)c1=O (stereo not given)
91	C=C(C)CC(NC(C)=O)(C(=O)OCC)C(=O)OCC
92	CCOC(=O)c1ccc(N2CCN(C(C)=O)CC2)c(NC(=O)c2ccc(CC)cc2)c1
93	Cc1c(C(=O)OCc2ccccc2)[nH]c2c1C(=O)CC(c1ccc(C(C)(C)C)cc1)C2 (stereo not given)
94	Cc1cc2nc(/C(C#N)=C/c3cccs3)[nH]c2cc1C
assay / compound | 89 | 90 | 91 | 92 | 93 | 94
StopGo RLuc | -7% | -19% | -3% | 128%[activator] | -10% | 59%[activator]
2A firefly | -13% | -11% | 0% | 7% | -10% | 71%[activator]
